# RmlCD inh 1536 – M. tuberculosis RmlC/RmlD coupled enzyme inhibitors, primary screen, biochemical, compound mixtures, 384-well, from 1536-well plates. dTDP-4-dehydrorhamnose reductase (Mycobacterium tuberculosis (strain ATCC 25618 / H37Rv)) …. RmlC+RmlD coupled enzyme assay, percent inhibition; primary screen in compound mixtures. inhibition, % at 3.6 µM. 160,000 tested, 0.03% active; in the data active = inhibition mostly above about 34%, no sharp cut-off; only retested compounds are shown here; note: some results filed as inactive read as strong as hits
# Target sequence (P9WH09 whole entry, looked up): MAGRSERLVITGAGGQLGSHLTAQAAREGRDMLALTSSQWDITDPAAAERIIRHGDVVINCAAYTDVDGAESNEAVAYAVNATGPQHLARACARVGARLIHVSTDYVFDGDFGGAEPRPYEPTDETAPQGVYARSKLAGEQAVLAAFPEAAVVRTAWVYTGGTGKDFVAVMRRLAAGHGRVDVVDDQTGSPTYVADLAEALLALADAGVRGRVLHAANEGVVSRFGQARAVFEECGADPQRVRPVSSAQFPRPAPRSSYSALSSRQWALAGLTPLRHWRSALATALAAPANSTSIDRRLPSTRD
# Target sequence (P9WH11 whole entry, looked up): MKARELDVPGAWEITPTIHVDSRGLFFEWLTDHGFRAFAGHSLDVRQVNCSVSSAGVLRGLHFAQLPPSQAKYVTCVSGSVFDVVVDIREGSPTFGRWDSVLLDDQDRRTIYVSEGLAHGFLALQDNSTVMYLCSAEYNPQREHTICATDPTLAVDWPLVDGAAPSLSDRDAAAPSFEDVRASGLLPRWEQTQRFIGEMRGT
# RmlCD inh 1536 retest – also measured in RmlCD inh 1536; calls as there; inhibition, %; measured here: mean retest inhibition;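 single compounds in two wells; values far above 100% likely come from compound fluorescence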
# Numbers without * were called inactive.
SMILES,RmlCD inh 1536,RmlCD inh 1536 retest
CCCC1S/C(=N/N=C/c2ccco2)NC1=O (stereo not drawn),48,14
COc1ccc(C2CC(=O)N(C)c3ccccc3S2)cc1OC (stereo not drawn),31,-2
COc1cccc(CC2(CO)CCN(Cc3cnc(-c4cccc(C)c4)nc3)CC2)c1,44,-11
O=C(N[C@@H](Cc1c[nH]c2ccccc12)C(=O)NC1CC1)c1ccccc1Cl,62,8
COc1cc(C(=O)NCCSc2ccc(Br)cc2)cc(OC)c1OC,44,-7
CCCCCCCCCCCCN1C(=O)CSC1c1cccnc1 (stereo not drawn),109,-13
COC(=O)CCN(C(=O)C12CC3CC(CC(C3)C1)C2)c1ccccn1,49,-4
COc1ccc(-c2cn[nH]c2C)cc1,109,6
Cc1nnc(SCC(=O)c2ccccc2F)n1Cc1ccccc1,108,-8
O=C(Cc1ccc(Br)cc1)N/N=C/c1ccc(-c2cccc(C(=O)O)c2)o1,41,10
COc1ccc(-n2c(C)cc(C(=O)CSc3ccc(NC(C)=O)cc3)c2C)cc1,66,-9
CC(C)c1ccc(/C=N/N2CCN(c3ccccn3)CC2)cc1,82,-4
COCCCNC(=S)N1CCC(NC(=O)Nc2ccc(C)cc2)CC1,38,7
O=C(CNC(=O)c1ccc(Cl)cc1)N/N=C/C=C/c1ccccc1,31,-2
CCOc1ccc2[nH]c(C)c(CN(C)C)c(=O)c2c1,88,4
C=CCNCC(=O)NN=C(c1ccccc1)c1ccccc1,54,-13
COc1ccc(Oc2nc(C)cc(C)c2S(C)(=O)=O)cc1,49,8
COC(=O)c1ccc(COc2ccccc2/C=N/O)o1,70,2
CCOc1ccc(CNC(=O)CCSCc2ccccc2F)cc1OC,34,2
COc1ccc(/C=N/NC(=O)CN2CCS(=O)(=O)CC2)cc1,37,11
CCc1ccc(Sc2cc(C(=O)NCCN3CCOCC3)c3ccccc3n2)cc1,38,-5
Cc1ccc(S(=O)(=O)/N=C(\c2ccc(Cl)cc2)N2CCOCC2)cc1,37,8
CC(=O)N1CCC[C@H]1C(=O)O,42,8
Cn1cc(C=C2C(=O)CC(C)(C)CC2=O)c2ccccc21,80,0
CC(C)C(=O)Nc1ccc(N2CCN(C)CC2)c(F)c1,95,-18

# Arranged by heavy-atom count (high to low): part of the list above
SMILES,RmlCD inh 1536,RmlCD inh 1536 retest
COc1cccc(CC2(CO)CCN(Cc3cnc(-c4cccc(C)c4)nc3)CC2)c1,44,-11
CCc1ccc(Sc2cc(C(=O)NCCN3CCOCC3)c3ccccc3n2)cc1,38,-5
COc1ccc(-n2c(C)cc(C(=O)CSc3ccc(NC(C)=O)cc3)c2C)cc1,66,-9
O=C(N[C@@H](Cc1c[nH]c2ccccc12)C(=O)NC1CC1)c1ccccc1Cl,62,8
CCOc1ccc(CNC(=O)CCSCc2ccccc2F)cc1OC,34,2
COC(=O)CCN(C(=O)C12CC3CC(CC(C3)C1)C2)c1ccccn1,49,-4
O=C(CNC(=O)c1ccc(Cl)cc1)N/N=C/C=C/c1ccccc1,31,-2
CC(C)c1ccc(/C=N/N2CCN(c3ccccn3)CC2)cc1,82,-4
COc1ccc(/C=N/NC(=O)CN2CCS(=O)(=O)CC2)cc1,37,11
COc1ccc(Oc2nc(C)cc(C)c2S(C)(=O)=O)cc1,49,8
CC(C)C(=O)Nc1ccc(N2CCN(C)CC2)c(F)c1,95,-18
CCOc1ccc2[nH]c(C)c(CN(C)C)c(=O)c2c1,88,4
CCCC1S/C(=N/N=C/c2ccco2)NC1=O (stereo not drawn),48,14
COc1ccc(-c2cn[nH]c2C)cc1,109,6
CC(=O)N1CCC[C@H]1C(=O)O,42,8

# (further entries)
SMILES,RmlCD inh 1536,RmlCD inh 1536 retest
Cc1onc(-c2ccccc2)c1C(=O)NC(=S)NNC(=O)c1cc(-c2ccc(F)cc2)n[nH]1,110,-26
CCOc1nc(CC(C)C)c2c(c1C#N)CC(C)(C)OC2,33,-29
CCOc1ccc(S(=O)(=O)N(CC(=O)NC2CCCCC2C)Cc2ccco2)cc1 (stereo not drawn),51,7
NC(N)=N/N=C/c1ccc(OS(=O)(=O)c2ccccc2)cc1,73,-7
CN1CCN(S(=O)(=O)c2ccc(Oc3ccc(F)cc3Br)nc2)CC1,40,9
CSc1ncc(/C=C2/C(=O)NC(=O)N(C)C2=O)cn1,37,-6
O=C(Nc1cn(-c2ccccc2)nc1-c1ccc(Cl)cc1)c1ccccc1,56,-17
S=P(Nn1cnnc1)(c1ccc(Br)cc1)c1ccc(Br)cc1,67,-5
O=C(Nc1ncn[nH]1)C(F)(F)C(F)F,45,-10
COc1ccc(/C=N\NC(=O)c2nn(C)cc2Cl)cc1CN1CCOCC1,62,8
CCNC(=O)NC(=O)C(C)OC(=O)c1ccc(-n2nc(SC)sc2=S)cc1 (stereo not drawn),74,-7
Cc1csc(SCC(=O)NC(C)c2ccc(F)cc2)n1 (stereo not drawn),32,0
COc1cccc(C2=CC(c3cc(OC)ccc3OC)n3nnnc3N2)c1 (stereo not drawn),66,13
COc1ccc(CCN(C(=S)Nc2ccccc2)C2CC(=O)N(c3ccccc3)C2=O)cc1 (stereo not drawn),41,2
Cc1ccc(/C=N/OC(=O)c2c(C)noc2-c2snnc2C)cc1,39,-15
CCn1ncc(-c2cc(C(=O)O)no2)c1C,36,-1
CCOC(=O)C1=NNC2C(=O)N(Cc3ccccc3)C(=O)C12 (stereo not drawn),105,-3
O=S(=O)(NCC1CCCO1)c1ccc(-c2ccc(S(=O)(=O)NCC3CCCO3)cc2)cc1 (stereo not drawn),70,-1
O=C(COC(=O)c1ccccc1NS(=O)(=O)c1cc([N+](=O)[O-])ccc1Cl)c1ccccc1,35,-15
CN(C(=O)CO/N=C/c1ccc(Cl)cc1)c1ccccc1,61,16
CC1=CC(C)(C)n2c(O)c(N=NC(N)=S)c3c(C)ccc1c32,52,-8
CC(=O)NC(CC(=O)O)c1ccccc1 (stereo not drawn),103,8
O=C(CC(=O)Nc1nc(C23CC4CC(CC(C4)C2)C3)cs1)NCCO,58,0
O=C(CSc1nnc(NC(=O)C2CCCCC2)s1)NCc1ccco1,33,-29
Cc1ccc(NC(=S)N2CCCC(O)C2)cc1 (stereo not drawn),109,-5

# A second format for three compounds above:
# Each structure is followed by: RmlCD inh 1536, RmlCD inh 1536 retest
Cc1csc(SCC(=O)NC(C)c2ccc(F)cc2)n1 (stereo not drawn)
 : 32, 0
Cc1ccc(NC(=S)N2CCCC(O)C2)cc1 (stereo not drawn)
 : 109, -5
CN1CCN(S(=O)(=O)c2ccc(Oc3ccc(F)cc3Br)nc2)CC1
 : 40, 9

# (next part)
SMILES,RmlCD inh 1536,RmlCD inh 1536 retest
Nc1cc(S(=O)(=O)Nc2ccccc2Cl)ccc1N1CCCC1,65,-23
CC(C)C(=O)c1ccc(O)c(O)c1,53,10
CNC(=O)CCC(=O)Nc1ccc(C)cc1,52,-12
Nc1c(C(=O)N/N=C/c2cccnc2)oc2nc(-c3ccco3)cc(-c3ccco3)c12,90,-3
O=C(CSc1nnc(-c2ccccc2F)n1C1CC1)NC(=O)c1cccc([N+](=O)[O-])c1,74,-1
COc1ccc(N2CCN(C(=O)c3ccc(Cl)c(S(=O)(=O)N4CCCC4)c3)CC2)cc1,50,-15
CC(C)(C)c1ccc(C(=O)Nc2ccccc2Cl)cc1,35,-1
O=C(CSc1ccccc1C(=O)O)NCc1ccccc1,47,-18
O=C(N/N=C/C=C/c1ccco1)c1ccncc1,58,-7
Cc1cccc(NS(=O)(=O)c2cnc(Cl)c(Br)c2)n1,41,-9
O=C(NN=C1CCCC1)NC1CCCCC1,32,8
O=C(COc1ncnc2cc([N+](=O)[O-])ccc12)NC(=O)NC1CCCCC1,46,-7
CC(=O)N(C)Cc1ccc(C(=O)CCl)cc1,37,-4
NS(=O)(=O)c1ccc(N=Nc2c(O)[nH]c(=S)[nH]c2=O)cc1,56,-27
COCCCNC(=S)N/N=C/c1cccc(OC)c1O,36,-6
CC(C)OCC(O)CCc1n[nH]c(=S)n1-c1ccccc1 (stereo not drawn),55,3
CC(C)c1ccc(/C=C2\SC(N3CCOCC3)=NC2=O)cc1,84,-5
Cc1ccc2c(c1)c1nnc(SCC(=O)N3CCCc4ccccc43)nc1n2CC(=O)O,35,-6
O=C1CCCN1CC#CCN1CCCC1,60,10
CCN(CC(=O)Nc1ccccc1C(=O)Nc1ccccc1)Cc1nc2ccccc2c(=O)[nH]1,32,10
N#Cc1nc(-c2ccc(OCc3ccccc3)cc2)oc1N1CCC(C(N)=O)CC1,41,-114
O=C(Nc1cccc(Cl)c1N1CCOCC1)c1cccnc1Cl,67,9
COc1ccc(CNC(=O)CCSc2ccc(F)cc2)cc1OC,38,7
Cc1ccc(N2C(=O)NC(=O)/C(=C\c3ccsc3)C2=O)cc1C,95,-3
COC(=O)Nc1ccc(S(=O)(=O)N2CCCC(C(=O)N3CCCCCC3)C2)cc1 (stereo not drawn),43,3
# More compounds:
SMILES,RmlCD inh 1536,RmlCD inh 1536 retest
CCOc1[nH]n(-c2ccc(Cl)cc2)c(=O)c1C=Nc1ccc(OC)cc1,37,11
Cc1nn(-c2ccccc2)c(Cl)c1/C=N/Nc1nc2ccccc2n1C,34,6
O=C(NC1(C(F)(F)F)N=C2SCCN2C1=O)c1ccccc1F (stereo not drawn),44,-5
Cc1ccc(C(=O)Nc2ccccc2Sc2ccccc2)cc1,64,6
Cn1nnc(NC(=S)NC(=O)c2cc3ccccc3o2)n1,83,-15
CC(C)N(CCn1c(SCC(=O)N2CC(=O)Nc3ccccc32)nc2ccccc2c1=O)C(C)C,86,10
Cc1nc2ccccn2c1C(=O)C(=O)Nc1cc(F)ccc1F,31,-10
O=C(Nc1ccncc1)c1ccc2ccccc2c1,47,14
COc1ccc2nc(NC(=O)Cn3cnc4ccccc4c3=O)sc2c1,85,3
COc1ccc(NS(=O)(=O)c2ccc(OC)c(NC(=O)CCC3CCCCC3)c2)cc1,66,11
Cc1cc(-c2ccccc2)nc(N(C)NC(=O)C(C)(C)C)c1S(C)(=O)=O,35,-14
CCN(CC)c1ccc(NC(=O)Cn2ncc3c(C)n(Cc4ccccc4F)c(C)c3c2=O)c(C)c1,41,2
Cc1cccc2cc(CN(Cc3ccccc3)C(=S)NCCCN(C)C)c(=O)[nH]c12,45,5
O=S(=O)(Cc1ccc(Cl)cc1)C1CCCCC1O (stereo not drawn),78,-6
CC(=O)c1ccc(N2CCN(C(=O)CCCn3c(=O)[nH]c4ccccc4c3=O)CC2)cc1,40,-5
O=C(CSc1n[nH]c(-c2ccccc2)n1)NCc1cccc(C(=O)O)c1,43,-27
Cc1ccsc1/C=N/n1cnnc1,67,13
O=C(NNC(=O)c1cc(-c2ccco2)nc2ccccc12)c1ccccc1,40,30
CS(=O)(=O)CCC(C(=O)OCc1ccc(Br)cc1)N1C(=O)c2ccccc2C1=O (stereo not drawn),33,1
CN(C)CCNC(=O)c1cccc(S(=O)(=O)Nc2ccc(F)cc2)c1,60,3
O=C(CNC(=O)C(c1ccccc1)c1ccccc1)OCC(=O)c1cccs1,48,-16
Cc1[nH]c(=O)c(C(=O)c2ccccc2O)cc1C(=O)O,103,-21
COc1cc(C(F)(F)F)nc2ccc(C#CCOC(=O)Nc3ccccc3)cc12,79,-5
CC1CCCC(C)N1/N=C/c1ccc(C(=O)O)cc1 (stereo not drawn),95,13
CCOc1ccc(/C=c2\sc3nc(-c4ccco4)nn3c2=O)cc1OCC,104,-11
# The listing continues:
SMILES,RmlCD inh 1536,RmlCD inh 1536 retest
O=C(O)C(C(=O)/C=C/c1ccco1)=C1SCCS1,34,8
CCNC(=S)NNC(=O)c1cccn(Cc2ccc(Cl)cc2)c1=O,61,2
CCOC(=O)C1CCCN(C(=O)COc2ccc(N(C)S(=O)(=O)c3ccc(F)cc3)cc2)C1 (stereo not drawn),110,4
COc1cc(-c2cc(C(=O)Nc3ccc(S(=O)(=O)Nc4ncccn4)cc3)c3ccccc3n2)cc(OC)c1OC,37,-43
COC(=O)c1c(NC(=O)CSc2nc3nc(C)cc(C)n3n2)sc(C)c1C,45,10
CCc1nnc(NC(=O)c2ccc3nc(CC)c(CC)nc3c2)s1,36,4
COc1ccc(-n2cc(CNCCc3nc(C)cc(C)n3)c(-c3ccccc3Cl)n2)cc1,49,3
CCn1nc(C)c(Br)c1-c1nc(CS(=O)(=O)c2ccc(F)cc2)no1,33,7
Cn1c(N2CCOCC2)c(/C=N/OC(=O)c2cccnc2Cl)c2ccccc21,65,-3
O=C1c2ccccc2C(=O)N1n1cccc1,55,-6
O=C(Cc1ccc([N+](=O)[O-])cc1)N1N=C(C2CC2)CC1(O)C(F)(F)F (stereo not drawn),36,-23
COc1ccc(-c2nn(C)c(=O)c3ccccc23)cc1CNC(=O)C1CCCCC1,31,-1
CC(C)(C)C(=O)NC(=O)Nc1ccccc1C(F)(F)F,53,-8
Cc1cc(-c2ccccc2)nc(N(C)C)c1S(C)(=O)=O,35,-11
Cc1nc(C(=O)NNC(=O)Nc2ccccc2)cs1,46,6
CC(C)Sc1ncc(S(=O)(=O)c2ccccc2)c(=O)[nH]1,40,-11
O=C(Cc1ccc([N+](=O)[O-])cc1)N1N=C(c2ccncc2)CC1(O)C(F)(F)F (stereo not drawn),44,-5
O=C(Nc1ccc(F)cc1)c1c(Cl)nc2ccccn12,48,-20
CCOc1ccc(OCc2ccc(C(=O)N3CCCC(C)C3)cc2)cc1 (stereo not drawn),63,-4
Cc1nc(-c2ccncc2)sc1C(=O)Nc1ccc(Br)cc1,36,-10
O=C1NCCCC1C(=O)N/N=C/c1ccccc1[N+](=O)[O-] (stereo not drawn),33,-12
COc1ccc(CN2C(=O)CC(Cc3ccc(C)cc3)C2=O)cc1OC (stereo not drawn),106,-11
CCN(CC)S(=O)(=O)c1ccc(N2CCOCC2)c(NC(=O)c2cc(C)cc(C)c2)c1,37,8
COc1ccc(Nc2nc3ccc(C)cc3cc2C#N)c(OC)c1,46,-26
CNC(=O)COC(=O)c1cc(-c2ccco2)nc2ccccc12,37*,49*
CCOC(=O)N/N=C(/C)c1ccc(N2C(=O)C3CCCCC3C2=O)cc1 (stereo not drawn),41,4
COc1cc2c(cc1OC)C(C1C(=O)CC(C)CC1=O)N(C(=O)CCl)CC2 (stereo not drawn),39,2
CCN(N)C(=S)Nc1ccc(F)cc1,94,0

# Compound activity deposited in PubChem by PCMD.

# This is a subset (hit frequency here may not be typical).
